Tg IFNy HTS: inhibitors of Toxoplasma gondii growth with IFN-gamma | Toxoplasma gondii growth in IFN-gamma-treated host cells; active compounds read low; reference of the scale not given here | activity change, negative = inhibition, %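 (about 20 µM by stock and volumes)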 | actives 3.8% (n = 69,000) | AID 1259416;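 active = below -70%; inconclusive = fit judged invalid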;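 also: host cells are HeLa cells infected with Toxoplasma gondii; parasite growth read as luciferase light; one replicate is shown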
* marks the source's active call; other numbers are inactive results; ? = inconclusive; & = joins results of further samples. Only part of the results is shown. The share of hits here may be higher or lower than overall.

SMILES	Tg IFNy HTS
COc1ccc([C@H]2CC=CC[C@H](C)Oc3ccccc3C(=O)N(C)[C@@H](Cc3ccccc3)C(=O)N2)c(OC)c1 (mixture of isomers)	-55
Cc1noc2nc3c(c(C(=O)NC4CCC(n5cnnc5)CC4)c12)CCC3 (stereo unspecified)	2
Cc1noc(C)c1CC(=O)NC(C)c1cc(=O)[nH]c(N2CCC(C)CC2)n1 (stereo unspecified)	21
CCN1CCn2c(-c3cnn(C)c3)cnc2C12CCN(CC1CC1)CC2	61
CC(=O)N1CCCC2(CCN(Cc3c(F)ccc(C)c3Cl)C2)C1 (stereo unspecified)	3
CNC(=O)c1cc(=O)n(CC(=O)Nc2cccc(Cl)c2)c2ccccc12	-2
COCC#Cc1ccc2c(c1)O[C@@H](CN(C)C(=O)C1CCOCC1)[C@H](C)CN([C@@H](C)CO)S2(=O)=O	-12
CCOc1ccc(Nc2nc3ccccc3nc2Nc2ccc(OCC)cc2)cc1	-100*
N#Cc1c(Nc2ccccc2C(F)(F)F)s[nH]c1=O	40
O=C1CC(CSc2nccc(-c3cccnc3)n2)=NN1c1ccc(Cl)cc1	-16
CS(=O)(=O)N1CCOCC2(CCN(C(=O)C3CCCO3)CC2)C1 (stereo unspecified)	-1
O=C(NC1CCCC1)c1nc2c(o1)CN(CCO)C2	-10
COc1ccc(CN2CCC3(CC(n4cnnc4)CO3)C2)cc1 (stereo unspecified)	-43
C=CCOC[C@H]1CN(C)C(=O)[C@H]2CCN(C(=O)N3CCCC3)CC[C@@H]12	80
Cc1ccc(C2(O)CCN(C(=O)C(C)(C)NC(=O)c3cccs3)CC2)nc1	-1
CS(=O)(=O)N1CC(c2ncn3ccccc23)C1	26
CCc1cc(C(F)(F)F)c2c(C3CCN(C(=O)c4cc(C(C)C)[nH]n4)CC3)noc2n1	-76*
CSc1ccc2c(C)cc(N3CCC(O)(Cn4ccnc4)CC3)nc2c1	-21
Cc1ccc(CNC(=O)Cn2ncc3c(N4CCOCC4)ncnc32)cc1C	25
COc1cccc(CC2(CO)CCN(c3ccc(-c4nccn4C)nn3)CC2)c1	60
COCCN1C[C@H]2[C@H](OC)CCN(C(=O)c3cc(C4CC4)on3)[C@H]2C1	2
Cc1nc(-c2ccc(F)cc2)sc1-c1ccc(SCc2ccc(Cl)cc2)nn1	2
COc1cccc(C(=O)Nc2ccc(-c3nc(Cn4nc(C)c(C)c4C)c(C)o3)cc2)c1	-98*
COc1ccc2c3c([nH]c2c1)[C@@H](CO)N(C)CC31CCN(C(=O)CN(C)C)CC1	473
CCOc1ccc(-c2nc(CN(C)S(=O)(=O)c3ccccc3C)c(C)o2)cc1	35
Cc1nc(C(F)(F)F)nc(N2C[C@H]3C[C@H](O)[C@H](O)C[C@H]3C2)c1C	-13
CC(O)CN(Cc1ccc2c(c1)OCO2)Cc1cncc2c(Cl)[nH]nc12 (stereo unspecified)	-41
Cc1cc(NC(=O)Nc2ccc(N(C)C)cc2)c2cc(F)cc(F)c2n1	21
COc1ccc(-c2ccc3c(c2)[C@H]2[C@H](CCN2C(=O)c2cccc(F)c2)[C@@H](CO)N3)cc1	?
CC(C)CN1CCC(NCc2nncn2C2CCCCC2)CC1	-2
CCN1CCC2(CC1)OC(=O)C(C)=C2C(=O)Nc1cccc(C)c1C	52
CC(C)C(=O)OC[C@@]1(N=[N+]=[N-])O[C@@H](n2ccc(N)nc2=O)[C@H](OC(=O)C(C)C)[C@@H]1OC(=O)C(C)C	17
Cc1cc(C(F)(F)F)nc(CCNCc2nnc(-c3ccc(C)n3C)o2)n1	6
Cc1ccc(Nc2nc(C(=O)Nc3c(C)cc(C)cc3C)nc3ccccc23)cc1	-60
CC(C)C(CNC(=O)c1ccc(N2CCCCC2)cc1)N1CCOCC1 (stereo unspecified)	5
C[C@H]1CCc2cnnn2COCCNC1=O	-30
CCO[C@H]1CC[C@@H]2[C@H]1OCCN2C(=O)CC1C=CCC1 (stereo partly specified)	264
O=C(NCC(=O)N1CCN(c2ccccn2)CC1)c1cc2ccccc2[nH]1	65
Nc1nc(-c2ccc(-c3cccc4c3CCNC4)cc2)cs1	10
NS(=O)(=O)c1ccc(CNC(=O)c2ccccc2Cl)cc1	-2

Taken from above for reference:
SMILES	Tg IFNy HTS
COCCN1C[C@H]2[C@H](OC)CCN(C(=O)c3cc(C4CC4)on3)[C@H]2C1	2
Cc1nc(-c2ccc(F)cc2)sc1-c1ccc(SCc2ccc(Cl)cc2)nn1	2
COc1cccc(C(=O)Nc2ccc(-c3nc(Cn4nc(C)c(C)c4C)c(C)o3)cc2)c1	-98*
COc1ccc2c3c([nH]c2c1)[C@@H](CO)N(C)CC31CCN(C(=O)CN(C)C)CC1	473
CCOc1ccc(-c2nc(CN(C)S(=O)(=O)c3ccccc3C)c(C)o2)cc1	35
Cc1nc(C(F)(F)F)nc(N2C[C@H]3C[C@H](O)[C@H](O)C[C@H]3C2)c1C	-13

(next part)
SMILES	Tg IFNy HTS
COc1cccc(S(=O)(=O)N2CCC3(CC2)NCCNC3=O)c1	15
CCCC(=O)Nc1cc2c(cc1OC)NC(=O)CC2c1cccc2nsnc12 (stereo unspecified)	-3
CN1C(=O)c2cc(NC(=O)Cc3cccs3)ccc2OC[C@@H]2O[C@@H](CC(=O)N[C@H]3CCN(Cc4ccccc4)C3)CC[C@@H]21	1
Cc1cc(CNC(=O)c2cccc(C3CCNC3)c2)ccc1F (stereo unspecified)	-1
CCCCc1cn(CC2CCN(C(=O)c3cccs3)CC2)nn1	3
Cc1nc(NCCCCc2ccccc2)c2cnn(C)c2n1	-26
CN(C)c1ccc(Nc2c3c4c(cccc4n(C)c2=O)C(=O)c2ccccc2-3)cc1	2
NCC1CN(Cc2cnc(NCc3ccccc3)nc2)CCO1 (stereo unspecified)	2
CO[C@H]1CN(C)C(=O)c2cc(NC(=O)C3CCCCC3)ccc2OC[C@H](C)N(C(=O)c2ccccc2)C[C@@H]1C	129
O=C(c1ccc2c(c1)OCO2)N1CCc2c([nH]c3ccccc23)C1c1ccc(F)cc1 (stereo unspecified)	-109*
Cn1cc(NC(=O)c2cccc(CN3CCC3c3ccc(F)cc3)c2)cn1 (stereo unspecified)	-11
CSCc1nc(CNC(=O)C2CCOC2)cs1 (stereo unspecified)	-22
Cc1cc(C)n(CCCC(=O)N2CCC3(CN(C)C(=O)O3)C2)n1 (stereo unspecified)	-1
C=CCO[C@@H]1C[C@H]2CN(S(=O)(=O)c3cccs3)CCN2C1	-26
CNC(=O)CCN(C)C(=O)C(O)c1ccc(C(F)(F)F)cc1 (stereo unspecified)	-1
CCC/C=C/c1cc(NC(C)C)ncn1	397
COc1ccc(S(=O)(=O)N(C)C[C@@H]2OCCCC[C@H](C)Oc3ccc(NC(=O)Cc4ccccc4)cc3C(=O)N([C@@H](C)CO)C[C@@H]2C)cc1	?
O=C(CCCc1ccccc1)Nc1ccc2c(c1)CCC(=O)N2	146
CN(C)Cc1cn(CC[C@H]2CC[C@H](NC(=O)Cc3cccnc3)[C@@H](CO)O2)nn1	-30
COc1c[nH]c(CN2CCCC(CCc3cccc(F)c3)C2)cc1=O (stereo unspecified)	-19

Reprinted from the part before: 6 compounds, followed by the next part.
SMILES	Tg IFNy HTS
CNC(=O)CCN(C)C(=O)C(O)c1ccc(C(F)(F)F)cc1 (stereo unspecified)	-1
CCC/C=C/c1cc(NC(C)C)ncn1	397
COc1ccc(S(=O)(=O)N(C)C[C@@H]2OCCCC[C@H](C)Oc3ccc(NC(=O)Cc4ccccc4)cc3C(=O)N([C@@H](C)CO)C[C@@H]2C)cc1	?
O=C(CCCc1ccccc1)Nc1ccc2c(c1)CCC(=O)N2	146
CN(C)Cc1cn(CC[C@H]2CC[C@H](NC(=O)Cc3cccnc3)[C@@H](CO)O2)nn1	-30
COc1c[nH]c(CN2CCCC(CCc3cccc(F)c3)C2)cc1=O (stereo unspecified)	-19
NC(N)=N/N=C/c1cccc(Cl)c1Cl	-21
COc1cccc(-c2nc(Cn3nnc(C(=O)Nc4ccc(Cl)c(Cl)c4)c3C)c(C)o2)c1OC	55
O=C(Nc1cccc(F)c1)N1CCCCN2[C@@H](CO)[C@@H](c3ccc(C#Cc4cccnc4)cc3)[C@@H]2C1	-47
O=C(N1CCc2ccccc2C1)C12CC3CC(CC(C3)C1)C2	-40
O=S(=O)(c1cccc2cnccc12)N1CCNCC1	-10&31
Cc1cc(C)n(CCCN(C)c2nc(-c3cccnc3)nc3c2cnn3C)n1	-36
CSCC[C@H](NC(=O)[C@H](Cc1c[nH]c2ccccc12)NC(=O)CCNC(=O)OC(C)(C)C)C(=O)N[C@@H](CC(=O)O)C(=O)N[C@@H](Cc1ccccc1)C(N)=O	15&22
O=C(O)c1ccccc1S(=O)(=O)NCC(O)COC1CCCCC1 (stereo unspecified)	30
C=CCn1c(SCC(=O)NCCc2ccccc2)nc2sc(C)cc2c1=O	46
O=C(NCCSc1ncn[nH]1)c1ccc(NC(=O)C2CCC2)cc1	-45
CCC(=O)N1C[C@@H]2[C@H](c3ccccc31)[C@H](CO)N2C(=O)CC1CC1	-6
CCOc1ccc(N(C(=O)c2ccco2)C(C(=O)NC2CCCC2)c2cccs2)cc1 (stereo unspecified)	2
O=C(c1ccc2c(c1)OCO2)N1CCN(S(=O)(=O)c2cc3c4c(c2)CCN4C(=O)CC3)CC1	-19
O=C(c1cc(-n2cccc2)ccc1O)N1CCC2(CCOCC2)CC1	-35
CCC(CC)CN1CCC2(CC(C(=O)NCc3ccc(F)cc3)=NO2)C1 (stereo unspecified)	-12
CO[C@@H]1CN(C)C(=O)c2cc(NC(=O)c3cnccn3)ccc2OC[C@@H](C)NC[C@H]1C	-47
CCCNC(=O)c1ccc(-c2ccc(OC)c(OC)c2)o1	-3
CC(Oc1cccc(-n2ccnc2-c2ccccn2)c1)C(=O)O (stereo unspecified)	5
Nc1ccc2oc(-c3cc(F)c(F)cc3Cl)nc2c1	280
O=C(Cn1ncc2c(N3CCN(c4ccccc4)CC3)ncnc21)NC1CC1	21

Quoted from the listing:
For Tg IFNy HTS, CC(C)CN1CCC(NCc2nncn2C2CCCCC2)CC1 has -2
For Tg IFNy HTS, O=C(c1ccc2c(c1)OCO2)N1CCN(S(=O)(=O)c2cc3c4c(c2)CCN4C(=O)CC3)CC1 has -19

New compounds follow
SMILES	Tg IFNy HTS
CCN1CCCC1CNC(=O)C1CCN(Cc2cc3ccccc3n2Cc2ccc(F)cc2)CC1 (stereo unspecified)	-38
O=C(c1ccoc1)N1C[C@H]2CN(c3cncnc3)C(=O)[C@H]2C1	-7
COCCCN1C(=O)N(Cc2ccc3ccccc3c2)C(=O)C12CCN(Cc1ccc(C)s1)CC2	-63
c1ccc(N2CCCN(Cc3ccncc3)CC2)cc1	6
Cn1ncc2c1ncn1nc(-c3ccncc3)nc21	0
C=CCOC1C2CCC1N(C(=O)c1cncc(C)c1)C2 (stereo unspecified)	32
CC(NC(=O)c1cc2n(n1)CCCN(C(C)C)C2)c1nccs1 (stereo unspecified)	5
CC(=O)NS(=O)(=O)c1ccc(NC(=O)c2ccccc2C(=O)O)cc1	0
C/C=C/c1ccc([C@H]2[C@H](CO)N3CCCCN(S(=O)(=O)c4ccc(OC)cc4)C[C@@H]23)cc1	-35
Cc1ccc2c(CN3CCN(Cc4nc(-c5ccc(Cl)cc5)oc4C)CC3)cc(=O)oc2c1	-37
Cc1ccc(-c2nn3c(=O)c(C)nnc3s2)cc1C	-28
CC(=O)N1[C@@H]2c3ccc(-c4cncnc4)c(=O)n3C[C@@H]2[C@@H](CO)[C@@H]1C(=O)NCc1ccccc1Cl	6
Cc1ccc2c(c1)c(CNC(C)COc1ccccc1)nn2C (stereo unspecified)	-19
CN1CC2(CCN(C(=O)c3cc(C4CC4)[nH]n3)C2)OC1=O (stereo unspecified)	3
N#Cc1ccc(C(=O)N2C[C@H](OCc3cccnc3)[C@@H]3COC[C@@H]32)cc1	-22
COc1ccccc1CNC(=O)c1c(O)c2cccnc2n(-c2cccc(F)c2)c1=O	234
CCn1c(C2CCN(C(=O)CCc3cn[nH]c3)CC2)nn(C)c1=O	-21
